HPGD inh: qHTS Assay for Inhibitors of HPGD (15-Hydroxyprostaglandin Dehydrogenase); 15-hydroxyprostaglandin dehydrogenase [NAD(+)] (Homo sapiens), P15428; purified HPGD, NADH fluorescence kinetic, PGE2 substrate; Potency, µM, for inactives: at the top dose activity change, negative = inhibition, most hits filed as inhibitors; 4.3% of 150,000 active; AID 894, 2007; active = well fitted inhibition curve with a large enough effect (not every such curve was filed as active); inconclusive = small, poorly fitted or top-dose-only effect, or another doubt; inactive = no such curve, though single readings can be large or run the other way;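 note: top concentration of the series not given in the record; plate controls included wells without enzyme; inactives centre near -10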
Target sequence (P15428 whole entry, looked up): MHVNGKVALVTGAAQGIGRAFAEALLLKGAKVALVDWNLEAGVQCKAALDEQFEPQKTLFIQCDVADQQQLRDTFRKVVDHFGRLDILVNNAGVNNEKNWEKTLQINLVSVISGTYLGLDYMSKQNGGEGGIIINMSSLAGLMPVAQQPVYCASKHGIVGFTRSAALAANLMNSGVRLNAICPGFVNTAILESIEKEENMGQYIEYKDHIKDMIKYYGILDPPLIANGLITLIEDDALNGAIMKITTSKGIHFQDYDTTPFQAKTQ
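20 nM HPGD preincubated 15 min at room temperature with compound in 50 mM Tris-HCl pH 8, 0.01% Tween 20. Started with 1 mM NAD+ and 30 uM prostaglandin E2; NADH fluorescence (360/450 nm) read 5 times over 30-s intervals, last minus first.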
* marks the source's active call; other numbers are inactive results. % is set by controls: 0 for no effect and ±100 for the full control effect; potency is the fitted concentration of half-maximal effect.

How did COC(=O)[C@@]1(Cc2ccccc2)[C@H]2c3cc(C(=O)N4CCCC4)n(CCN4CNCC4=O)c3C[C@H]2CN1C(=O)c1ccccc1 do in these assays?
HPGD inh: -0.9%

What do the screens show for `O=C(Nc1ccc(S(=O)(=O)NCc2ccccc2)cc1)c1ccccc1[N+](=O)[O-]`?
HPGD inh: -8.4%

Results for CCOC(=O)c1ccc(Oc2nc(NC)nc(OC)n2)cc1 ?
HPGD inh: 1.9%

Results for COc1cccc(/C=N/NC(=O)CSc2nnc(C)n2-c2ccccc2)c1OC ?
HPGD inh: -6.4%

How did Cc1ccc(S(=O)(=O)Nc2nc3ccccc3s2)cc1 do in these assays?
HPGD inh: -4.5%

How did CCCCCNC(=O)c1ccc2c(=O)n(CCOC)c(=O)[nH]c2c1 do in these assays?
HPGD inh: -18.2%

How did O=c1c2ccccc2oc2cc(O)c(C3COCC(CO)C(O)C(O)C3O)c(O)c12 (stereo not drawn) do in these assays?
HPGD inh: -7.0%

Results for COc1ccc(-c2onc3ccc(Cl)cc23)cc1 ?
HPGD inh: inconclusive

What do the screens show for `CC1CCCN(CC(=O)Nc2ccc(S(=O)(=O)N3CCCCCC3)cc2)C1` (stereo not drawn)?
HPGD inh: -10.2%

How did c1nnc2c3c4c(sc3ncn12)CCCC4 do in these assays?
HPGD inh: -1.5%

Results for COc1c(Cl)ccc(Cl)c1C(=O)O ?
HPGD inh: -22.7%

Results for Cc1cccc(NC(=O)c2sccc2-n2cccc2)c1C ?
HPGD inh: 4.2%

How did CSc1ncccc1C(=O)Nc1ccc(S(=O)(=O)Nc2nccs2)cc1 do in these assays?
HPGD inh: -23.9%

What do the screens show for `COc1c2c(nc3occc13)C(CCC(C)(C)O)(OC)C(O)CC2` (stereo not drawn)?
HPGD inh: -4.6%

Results for Cc1cc(C)n(-c2nc3ccccc3nc2N2CCCCCC2)n1 ?
HPGD inh: -22.7%

What do the screens show for `O=C(Nc1ccc2oc(-c3ccccc3F)nc2c1)c1cncc(Br)c1`?
HPGD inh: -18.0%

Results for Cc1ccc(C(=O)N/C(=C\c2sccc2C)C(=O)NCc2ccncc2)cc1 ?
HPGD inh: -2.5%

What do the screens show for `COc1ccc(N2CCN(Cc3nc(N)nc(Nc4ccc(C)c(Cl)c4)n3)CC2)cc1`?
HPGD inh: -4.0%

Results for Cc1ccccc1NC(=O)c1c(C)[nH]c(=S)c(C#N)c1-c1ccco1 ?
HPGD inh: -18.9%

Results for COc1ccc(S(=O)(=O)N2CCN(C)CC2)c2ccccc12 ?
HPGD inh: -3.1%

How did CCOC(=O)c1sc(NC(=O)c2ccc(S(=O)(=O)N3CCCCC3)cc2)nc1-c1ccccc1 do in these assays?
HPGD inh: inconclusive

How did Cc1cc(C2N=C(N)Nc3nc4ccccc4n32)c(C)n1-c1ccccc1Cl (stereo not drawn) do in these assays?
HPGD inh: -11.8%

How did CCOC(=O)C(C(=O)OCC)C(Nc1ccc(Br)cc1)c1ccccc1 (stereo not drawn) do in these assays?
HPGD inh: -8.3%

How did Cc1cc(C)n(-c2nc3ccccc3c3nc(C)nn23)n1 do in these assays?
HPGD inh: -7.5%

How did O=C(CNCc1ccco1)Nc1ccccc1-n1cccc1 do in these assays?
HPGD inh: -3.9%

Results for CCOC(=O)C1CCCN(C(=O)C2CCN(S(=O)(=O)N3CCC4(CC3)OCCO4)CC2)C1 (stereo not drawn) ?
HPGD inh: -13.3%

What do the screens show for `CCCn1nnc2sc3c(c2c1=O)CCC(C)C3` (stereo not drawn)?
HPGD inh: inconclusive

Results for O=[N+]([O-])c1ccc(NN=C2c3ccccc3Cc3ccccc32)c([N+](=O)[O-])c1 ?
HPGD inh: -6.4%

Results for COc1ccc(C(=O)SC2=NCCS2)cc1 ?
HPGD inh: -23.8%

What do the screens show for `CN(C)c1ccc2c(c1)OC(N)=C(C#N)C2c1cccc(F)c1` (stereo not drawn)?
HPGD inh: -21.8%

What do the screens show for `CN1CCc2nc(SCC(=O)Nc3ccc(F)cc3)c(C#N)cc2C1`?
HPGD inh: -19.8%

How did COC(=O)c1ccc(NC(=O)C(=O)N2CCCC2)cc1 do in these assays?
HPGD inh: -9.8%

What do the screens show for `O=C(Cc1cccc2ccccc12)N1CCCc2ccccc21`?
HPGD inh: -14.2%

What do the screens show for `CC(=O)c1cccc(-n2nnnc2SCC(=O)Nc2cccc(NC(=O)c3ccco3)c2)c1`?
HPGD inh: -10.8%

What do the screens show for `COc1ccc(NCc2nnc(SCC#N)n2-c2ccccc2OC)cc1`?
HPGD inh: -4.6%

How did O=C(Nc1ccc2c(c1)OCO2)C(c1ccccc1)N1CCN(C(=O)c2ccco2)CC1 (stereo not drawn) do in these assays?
HPGD inh: -19.4%

What do the screens show for `Cc1ccccc1N(C(=O)Cn1nnc(-c2cccs2)n1)C(C(=O)NCCC(C)C)c1ccco1` (stereo not drawn)?
HPGD inh: -8.0%

What do the screens show for `O=C(Nc1ccccc1C(F)(F)F)c1cc(S(=O)(=O)N2CCC3(CC2)OCCO3)ccc1F`?
HPGD inh: -7.4%

How did CCN(C(=O)CN1C=NS(=O)(=O)c2ccccc21)c1ccccc1 do in these assays?
HPGD inh: -4.8%

What do the screens show for `O=C(c1ccc(COc2ccccc2Cl)o1)N1CCN(Cc2ccc3c(c2)OCO3)CC1`?
HPGD inh: -11.6%

Results for CCCCc1cc(=O)oc2cc(C)cc(O)c12 ?
HPGD inh: -12.0%

Results for COc1ccc(O)c(/C=N/NC(=S)Nc2cccc(S(=O)(=O)N(C)C)c2)c1 ?
HPGD inh: inconclusive

Results for Clc1ccc(CSc2nccn2Cc2ccccc2)cc1 ?
HPGD inh: -17.4%

How did Cc1cccc(S(=O)(=O)c2c(N)n(-c3ccccc3)c3nc4ccccc4nc23)c1 do in these assays?
HPGD inh: inconclusive

What do the screens show for `CCCCOc1ccc(Cl)cc1CSc1n[nH]c(C)n1`?
HPGD inh: -8.4%

What do the screens show for `Cc1ccc(/C=C(\NC(=O)c2ccccc2)C(=O)NC(Cc2ccccc2)C(=O)O)cc1` (stereo not drawn)?
HPGD inh: 0.7%

How did CCC(C)NC(=O)Cn1c(=O)n(CCCCCC(=O)Nc2ccccc2)c(=O)c2sccc21 (stereo not drawn) do in these assays?
HPGD inh: -15.5%

How did COc1ccc(NC(=O)CN2CCN(S(=O)(=O)c3ccc(C(C)C)cc3)CC2)cc1OC do in these assays?
HPGD inh: -7.5%

Results for c1ccc(Cn2ncc3c(N4CCCCC4)ncnc32)cc1 ?
HPGD inh: -11.3%

How did CCC(C)(C)C1CCC(=NNS(=O)(=O)c2ccc(C)c([N+](=O)[O-])c2)CC1 (stereo not drawn) do in these assays?
HPGD inh: -3.4%

What do the screens show for `CC(C)(CO)NC(=O)C(c1ccccc1)c1ccccc1`?
HPGD inh: -9.4%

What do the screens show for `Cc1ccc(-c2nc(SCC(=O)NCC3CCCO3)c(-c3ccccc3)[nH]2)cc1` (stereo not drawn)?
HPGD inh: -22.6%

How did C[C@@H]1NC(=O)c2cc([N+](=O)[O-])cc(F)c2NCCC[C@@H](C(N)=O)NC(=O)[C@H](CC(N)=O)NC1=O do in these assays?
HPGD inh: -11.6%

How did O=C(CSc1nc2ccccc2[nH]1)NC1CCS(=O)(=O)C1 (stereo not drawn) do in these assays?
HPGD inh: 6.3%

Results for COC(=O)c1ccc(NC(=O)CSc2nnc(COc3c(C)cccc3C)o2)cc1 ?
HPGD inh: -3.1%

What do the screens show for `COc1cccc(-c2cc(C(=O)Nc3cc(OC)c(OC)c(OC)c3)no2)c1`?
HPGD inh: -15.4%

How did CCOC(=O)N1CCN(S(=O)(=O)c2cccc3ccc(C)nc23)CC1 do in these assays?
HPGD inh: 0.5%

Results for COc1ccccc1-n1cnc2c(c1=O)c1nc3ccccc3nc1n2CCc1ccccc1 ?
HPGD inh: inconclusive

Results for Cc1cc(S(=O)(=O)n2cnc3cc([N+](=O)[O-])ccc32)ccc1Cl ?
HPGD inh: -11.9%

How did Cc1cc(NC(=O)CCC(=O)N(CC(=O)NCC2CCCO2)c2ccc3c(c2)OCCO3)no1 (stereo not drawn) do in these assays?
HPGD inh: -4.2%

Next part, overlapping the part above by 6 compounds.
Results for COC(=O)c1ccc(NC(=O)CSc2nnc(COc3c(C)cccc3C)o2)cc1 ?
HPGD inh: -3.1%

What do the screens show for `COc1cccc(-c2cc(C(=O)Nc3cc(OC)c(OC)c(OC)c3)no2)c1`?
HPGD inh: -15.4%

How did CCOC(=O)N1CCN(S(=O)(=O)c2cccc3ccc(C)nc23)CC1 do in these assays?
HPGD inh: 0.5%

Results for COc1ccccc1-n1cnc2c(c1=O)c1nc3ccccc3nc1n2CCc1ccccc1 ?
HPGD inh: inconclusive

Results for Cc1cc(S(=O)(=O)n2cnc3cc([N+](=O)[O-])ccc32)ccc1Cl ?
HPGD inh: -11.9%

How did Cc1cc(NC(=O)CCC(=O)N(CC(=O)NCC2CCCO2)c2ccc3c(c2)OCCO3)no1 (stereo not drawn) do in these assays?
HPGD inh: -4.2%

What do the screens show for `COc1cc2c(cc1NC(=O)C(C)Sc1ccc(NC(C)=O)cc1)oc1ccccc12` (stereo not drawn)?
HPGD inh: -19.8%

Results for CCCn1nc2cc(C(=O)NC3CCCc4ccccc43)ccc2c1OCC (stereo not drawn) ?
HPGD inh: inconclusive

Results for O=C(/C=C/c1ccc(Cl)cc1Cl)NC(=S)Nc1ccccn1 ?
HPGD inh: -9.4%

Results for CN(C)c1cccc(C(=O)Nc2cc(C(F)(F)F)ccc2-n2cnc3ccccc32)c1 ?
HPGD inh: -11.2%

What do the screens show for `Cc1nc(SCC(=O)NCCc2ccc(Cl)cc2)nc(C)c1C`?
HPGD inh: -14.2%

What do the screens show for `CCCn1c(C)nc2c(NCCN3CCCC3)nc(C)nc21`?
HPGD inh: -5.9%

Results for Cc1nn(-c2ccccc2)c2sc(-c3n[nH]c(=S)o3)cc12 ?
HPGD inh: inconclusive

What do the screens show for `Cc1nn(CC(=O)OCC(=O)Nc2ccccc2[N+](=O)[O-])c(C)c1[N+](=O)[O-]`?
HPGD inh: -6.9%

How did O=C(CCl)NCc1c(Cl)cccc1-n1cccc1 do in these assays?
HPGD inh: -5.4%

How did COc1ccc(C2N(c3ccc(OC)cc3)C(=O)C3CCCN32)cc1 (stereo not drawn) do in these assays?
HPGD inh: -7.9%

How did CC(c1ccccc1)N(NC(=O)C(O)(c1ccccc1)c1ccccc1)C(=O)c1ccccc1 (stereo not drawn) do in these assays?
HPGD inh: -11.7%

Results for COc1ccc(OC)c(C2=Nn3c(nnc3C3CCCCC3)SC2)c1 ?
HPGD inh: inconclusive

What do the screens show for `COc1ccc(NCC(=O)N/N=C/c2c(C)nn(Cc3ccccc3)c2Cl)cc1`?
HPGD inh: inconclusive

How did COC(=O)c1ccc(CSc2nc3c(c(=O)n2-c2ccccc2)SCC3)o1 do in these assays?
HPGD inh: -13.6%

How did CCOc1cc(CNC2CCCC2)cc(Cl)c1OCc1ccccc1 do in these assays?
HPGD inh: -26.7%

Pulled by structure from the list above (2):
Results for CN(C)c1cccc(C(=O)Nc2cc(C(F)(F)F)ccc2-n2cnc3ccccc32)c1 ?
HPGD inh: -11.2%

How did O=C(CCl)NCc1c(Cl)cccc1-n1cccc1 do in these assays?
HPGD inh: -5.4%

Carrying on.
Results for CC/C=C\C/C=C\C/C=C\C/C=C\C/C=C\C/C=C\CCC(N)=O ?
HPGD inh: -7.3%

Results for COc1ccc(NC(=O)CN2C(=O)C(c3ccccc3)=NC23CCCCCC3)cc1 ?
HPGD inh: -1.1%

What do the screens show for `O=C1CC(N2C(=O)/C(=C/C=C/c3ccccc3)SC2=S)C(=O)N1c1ccccc1` (stereo not drawn)?
HPGD inh: -15.1%

How did N#CC1=C(N)Oc2cc(N)ccc2C1c1cccnc1 (stereo not drawn) do in these assays?
HPGD inh: -5.8%

How did COC(=O)c1c(NC(=O)c2cnccn2)sc2c1CCC2 do in these assays?
HPGD inh: -13.7%

Results for COC(=O)c1ccc(OCCn2cnc3ccccc3c2=O)cc1 ?
HPGD inh: -29.1%

How did O=c1cccc2n1Cc1cc3ccccc3nc1-2 do in these assays?
HPGD inh: inconclusive

What do the screens show for `O=C1CN(c2nc(-c3ccccc3)c3cc(Br)ccc3n2)c2ccccc2N1`?
HPGD inh: -10.2%

Results for Clc1ccc(C(c2ccccc2)N2CCNCC2)cc1 (stereo not drawn) ?
HPGD inh: -8.8%

What do the screens show for `N/C(=N\OC(=O)Cc1ccc(-c2ccccc2)cc1)c1ccccn1`?
HPGD inh: -10.1%

Results for CCCCNc1oc(-c2cccs2)nc1S(=O)(=O)c1ccccc1 ?
HPGD inh: inconclusive

Results for Cn1c(=O)n(C)c2cc(S(=O)(=O)NCc3ccco3)ccc21 ?
HPGD inh: -6.0%

Results for COC(=O)c1sc(N2C(=O)C(O)=C(C(=O)c3ccc(C)o3)C2c2ccc(F)cc2)nc1C (stereo not drawn) ?
HPGD inh: 8.91µM*

What do the screens show for `CC(=O)C1=C(C)OC(N)=C(C#N)C1c1cc2cc(C)c(C)cc2nc1Cl` (stereo not drawn)?
HPGD inh: -21.0%

What do the screens show for `CN(C)C(=O)Nc1cnc2ccccc2c1`?
HPGD inh: -6.7%

How did CCCCCOc1ccc(C2C(C(C)=O)=C(C)Nc3ncnn32)cc1OC (stereo not drawn) do in these assays?
HPGD inh: -24.1%

Results for O=C(Cc1ccccc1)Nc1ccc(-c2nnc(-c3ccco3)o2)cc1 ?
HPGD inh: -16.1%

Results for COC(=O)[C@@H]1C[C@H]2CC[C@H](O)C[C@H]2N1Cc1ccc(C(F)(F)F)cc1 ?
HPGD inh: -6.0%

What do the screens show for `Cc1ccc2nc(NC(=O)CCCc3nc4ccccc4s3)sc2c1`?
HPGD inh: -8.5%

Results for Cc1ccc(OCC(=O)N2CCCCC2)c(Br)c1 ?
HPGD inh: 15.8µM*

What do the screens show for `CCN(CC)c1nc2n(c(=O)n1)CCO2`?
HPGD inh: 1.1%

Results for O=C(Cc1cccs1)OCC(=O)c1ccco1 ?
HPGD inh: -20.6%

Compound activity deposited in PubChem BioAssay by National Center for Advancing Translational Sciences (NCATS).

Some of the compounds tested; count on the stated rates, not on these rows.
